Source: PubChem
HSD17B inh: HSD17B dehydrogenase inhibition; recombinant HSD17B10, NADH fluorescence kinetic; many of its hits are not listed in these tables; actives 7.6% (n = 75,000); Q99714; Potency, µM (titrated, usually from 57.1 µM), without a hit: at the top dose activity change, negative = inhibition, hits mostly inhibitors; AID 893; active means well fitted inhibition curve with a large enough effect; inconclusive means small, poorly fitted or top-dose-only effect; inactive means no such curve, though single readings can be large or run the other way;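 further: the protocol describes HADH2 (HSD17B10) and not the HSD17B4 of the title; nearly all actives have a fitted effect of over 70% in size; most hits overshoot -100% by far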
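Enzyme plus compound, 15 min room temperature; substrate mix added (NAD+ 1 mM, beta-hydroxybutyryl-CoA 90 uM final); plates read kinetically for NADH fluorescence. HADH2 was His-tagged, E. coli-derived, 20 nM.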
Numbers without * were called inactive; ? = inconclusive; & = joins results of further samples; [ ] = another dose, or the depositor's remark. On the % scale 0 is the no-effect control and ±100 the full control effect; potency means the concentration at half of the fitted maximal effect. Not all compounds are listed; the hit share may differ from the screen's.

SMILES,HSD17B inh
O=c1oc2ccc(Br)cc2cc1-c1nc2ccccc2o1,-4.0%
O=C1C(=O)N(CCN2CCOCC2)C(c2ccncc2)/C1=C(/O)c1ccc2c(c1)OCO2 (stereo unspecified),-3.9%
Cn1c(/C=N/n2cnnc2)nc2ccccc21,25.1µM*
CC(C)Oc1cccc(C(=O)Nc2ccc(NC(=O)c3ccco3)cc2)c1,35.7%[activator]
O=C1OCCC1Sc1nnc(-c2ccc(Br)cc2)o1 (stereo unspecified),13.6%
N#Cc1ccccc1Sc1ccccc1C(=O)OCC(=O)N1CCN(C(=O)c2ccco2)CC1,4.2%
CC(=O)c1cc(-c2ccccc2)n(CC(=O)N2CCN(C3CCCC3)CC2)c1C,-2.8%
COc1ccccc1N1CCN(C(c2cccs2)C(C)NC(=O)c2cccs2)CC1 (stereo unspecified),5.0%
CCOc1ccc(C(C)=O)cc1COc1ccc(-n2cnnn2)cc1,-5.6%
O=C(O)CCC(=O)N1CCc2cc(S(=O)(=O)NCc3cccs3)ccc21,-6.2%
COc1ccc(N(CC(=O)NCc2cccs2)S(=O)(=O)c2c(C)nn(C)c2C)cc1,2.8%
CC(C)C(=O)Nc1c(C(=O)c2ccc(F)cc2)oc2ccccc12,-178.5%
Cc1ccc(C2CC(c3ccc(F)cc3)Nc3nc(N)nn32)cc1 (stereo unspecified),-1.8%
Cc1onc(-c2ccccc2)c1C(=O)Nc1ccc(-c2nnc3n2CCCCC3)cc1,11.1%
C=CCn1c(SCCC(=O)O)nc2c1c(=O)n(C)c(=O)n2C,0.3%
CCOC(=O)c1c(-c2cccs2)csc1NC(=O)CN1CCOCC1,-18.1%
CN1C(=O)N2CN(C3CCCCC3)CN3C(=O)N(C)C1C23 (stereo unspecified),-12.4%
Cn1c(Cn2c(=O)sc3ccccc32)nnc1SCC(=O)N1CCOCC1,2.7%
O=C(Nc1cccnc1)c1ccc2snnc2c1,-8.5%
COc1ccc(C(CNC(=O)c2cc(C)oc2C)N2CCOCC2)cc1 (stereo unspecified),1.9%
CCOc1ccc(-c2nnc(-c3cccnc3)o2)cc1OCC,31.6µM*
CCCc1cc(=O)[nH]c(SCc2cc(C(=O)OC)c(C)o2)n1,0.9%
COc1ccc(S(=O)(=O)N(C)c2c(C)n(C)n(-c3ccccc3)c2=O)cc1OC,0.5%
CCN(CC)CCOC(=O)[C@@H](Cc1cccc2ccccc12)C[C@@H]1CCCO1,-0.1%[25.6 µM]
COc1ccc(C(=O)c2c(C)oc3ccc(O)c(CN4CCOCC4)c23)cc1,-7.5%
O=C(NC1CCCCCC1)c1c(O)c2ccccc2[nH]c1=O,-6.1%
CCCn1c2c(c(O)c(C(=O)Nc3ccc(OCC)cc3)c1=O)CCCC2,-5.9%
CN1CSC2=C(C#N)C(c3cccc(OCc4ccccc4)c3)CC(=O)N2C1 (stereo unspecified),25.1µM*
COc1ccc(C(=O)N(CN2CCCC2=O)c2ccc(C)cc2)cc1,5.1%
CC(C)CNS(=O)(=O)c1ccc(CCC(=O)Nc2ccc3c(c2)OCO3)cc1,4.0%
COc1ccc(C)cc1S(=O)(=O)N(C)CC(=O)N1CCCCCC1,-1.3%
Cc1ccc(Cn2ccc(NC(=O)c3cc(-c4ccc(Br)cc4)on3)n2)cc1,0.7%
CC(C)(C)n1ncc2c(=O)n(CC(=O)Nc3ccccc3)cnc21,5.9%
CCCCNC(=O)NS(=O)(=O)c1ccc(C(=O)OC(C)C)o1,-1.0%
CCN1CCN(CC(=O)Nc2cc(F)ccc2C)CC1,-2.1%
CC1=C(/C=C\C(=O)O)C(C)(C)CCC1,2.1%[11.4 µM]
CC1CCN(CC(=O)N2c3ccccc3Sc3cc4ccccc4cc32)CC1,5.4%[11.4 µM]
CCOC(=O)c1cccc(NC(=O)CSc2nnc(C3CCCCC3)n2C)c1,4.8%
CCc1ccc(N2CC(C(=O)OCC(=O)NC3CCS(=O)(=O)C3)CC2=O)cc1 (stereo unspecified),1.5%
CCNc1nc2c(c(=O)[nH]c(=O)n2C)n1Cc1ccc(F)cc1,12.7%
Cc1nc(NCCNC(=O)c2ccco2)c2c(C)c(C)sc2n1,1.2%
CC(=O)c1ccc(OCC(O)CN2CCC(C)CC2)cc1 (stereo unspecified),4.3%
CCN(CC)S(=O)(=O)c1ccc(O)c(C(=O)OCC(=O)N(C)Cc2ccccc2)c1,31.6µM*
COC(=O)c1ccc(C(/C=C/[C@@H](C)C(=O)NCCN2CCCC2)NC(=O)OCc2ccccc2)cc1 (stereo partly specified),9.4%
Cc1ccc(-c2ccc(=O)n(CCC(=O)NCCN3CCCCC3C)n2)cc1 (stereo unspecified),?
COc1ccc(S(=O)(=O)N2CCCN(CC(=O)Nc3ccc4c(c3)OCO4)CC2)cc1,8.4%
NC1=C(c2ccc(F)cc2)C(=O)CS1,-9.6%
CCOc1ccc(NC(=O)C2CCCN(S(=O)(=O)c3c(C)n[nH]c3C)C2)cc1 (stereo unspecified),-11.8%
CCOC(=O)N1CCC(NC(=O)CNS(=O)(=O)c2ccc(Br)s2)CC1,-2.7%
COc1ccc(-c2nc3c(c(SCC(=O)N4CCOCC4)n2)COC(C)(C)C3)cc1,9.6%
COc1ccc(-c2nnc(SCC(N)=O)n2N)cc1,5.0%
CCOc1ccc(Nc2nc(CC(=O)OC)cc(=O)[nH]2)cc1,6.6%
Cc1ccc2c(c1)NC(=O)C(CC(=O)NCCCN1CCc3ccccc3C1)O2 (stereo unspecified),-20.2%
Brc1ccc(Oc2nsnc2N2CCOCC2)cc1,-10.8%
O=C(CCN1CCCCC1)N1CCc2c([nH]c3ccccc23)[C@H]1c1cccnc1,5.2%[11.4 µM]
c1cncc(-c2nc(Oc3ccc(-c4nnco4)cc3)c3c4c(sc3n2)CCCC4)c1,22.8%
O=C(NCCC1=CCCCC1)c1ccc(CN2CCOCC2)cc1,1.1%
CS(=O)(=O)N(CC(=O)N1CCCC1)c1ccc(OCc2ccccc2)cc1,-1.3%
Cc1ccc(C)c(C(=O)CC2(O)C(=O)Nc3ccccc32)c1 (stereo unspecified),2.0%
Nc1nc2n(n1)C(c1ccco1)CC(c1ccc(Cl)c(Cl)c1)N2 (stereo unspecified),3.6%

Additional structures:
SMILES,HSD17B inh
Clc1ccccc1Cn1nnc2c(NCCN3CCOCC3)ncnc21,13.8%
Cc1ccc2c(c1)C1C=CCC1C(C(=O)O)N2 (stereo unspecified),6.31µM*
CS(=O)(=O)Nc1cccc(-c2nc(Nc3ccccc3)c3ccccc3n2)c1,?
Cc1cc(S(=O)(=O)Nc2cccc(O)c2)c(C)s1,-11.2%
CCSc1nnc(NC(=O)c2c(-c3ccccc3Cl)noc2C)s1,1.0%
Cc1nnc(SCCOC(N)=O)n1C,4.3%
CCC(=O)N1CCNC(=O)C1CC(=O)Nc1ccc(C)c(Cl)c1 (stereo unspecified),-15.0%
CC1CCC(NC(=O)c2ccc(N3CCCC3=O)cc2)CC1 (stereo unspecified),-0.3%
COc1cc(OC)cc(-c2nnc(SCC(=O)N3CCOCC3)o2)c1,-1.6%
CNc1ncncc1-c1c(C)noc1C,-2.8%
O=C(NCCCN1CCOCC1)c1ccc(Br)cc1,5.0%
COC(=O)c1sc2nc(-c3ccccc3)nc(N3CCN(C)CC3)c2c1C,31.6µM*
Cc1ccc(S(=O)(=O)NCCC(=O)NCc2ccccc2)cc1,3.9%
COC(=O)[C@@]1(Cc2ccccc2)C=C[C@@H](C)N1C(=O)c1ccccc1,?
O=S(=O)(Nc1ccc2c(c1)nc1n2CCN(Cc2ccccc2)C1)c1ccccc1,?
CCOC(=O)N1CCN(C(=O)CSc2nnc(-c3ccccc3OC)o2)CC1,0.0%
CCn1c(SCC(=O)c2[nH]c(C)c(C(C)=O)c2C)nnc1-c1cccs1,-6.5%
CCn1nc(C(=O)O)c(=O)c2cc3c(cc21)OCO3,7.6%
Cc1cc(C)nc(-n2nc(C)c(Sc3ccc(F)cc3)c2N)n1,-8.3%
Cc1ccccc1-n1c(SCC(=O)N2CCOCC2)nc(O)cc1=O,0.0%
Cc1cc(C(F)(F)F)nc(NCc2ccc(F)cc2)n1,?
CCCOc1ccc(OCCSc2ncccn2)cc1,-20.2%
CCCOc1c(OC)cccc1C1CC(=O)Nc2cc3c(cc21)OCCO3 (stereo unspecified),-9.8%
COc1ccccc1CNc1cc(-c2ccccc2Cl)ncn1,0.7%
COc1ccc(C(=O)CCC(=O)O)cc1,3.1%
C=CCC1c2cccc(C(=O)O)c2C(=O)N1c1ccc(F)cc1 (stereo unspecified),2.6%
CCOc1ccc2oc(-c3ccccc3)c(C(=O)N3CCN(C)CC3)c2c1,31.6µM*
COc1ccccc1-c1nc(NCCc2cnc[nH]2)c2ccccc2n1,-2.6%
CCn1c(=O)cc(OCC(=O)NCCCN2CCC(C)CC2)c2ccccc21,-1.3%
Cc1ccccc1OCC(O)Cn1c(NCc2ccco2)nc2c1c(=O)n(C)c(=O)n2C (stereo unspecified),-0.5%
CCSc1ccccc1C(=O)Nc1nncs1,2.9%
CCCCN(CC)CCNc1c(NC2CCN(C(=O)OCC)CC2)c(=O)c1=O,15.9%
CS(=O)(=O)N1CCC2(CC1)CN(Cc1ccccc1)C2,7.4%
CCC(Oc1ccccc1)C(=O)Nc1ccc(S(=O)(=O)NCC2CCCO2)cc1 (stereo unspecified),-3.5%
O=C(C1Cc2ccccc2O1)N1CCCCC1 (stereo unspecified),2.8%
COc1cccc(OCC(O)CN2CCOCC2)c1 (stereo unspecified),8.5%
NC(=O)C1(N2CCCCC2)CCN(C(=O)c2ccc(C#Cc3ccccc3)o2)CC1,-11.5%
Cc1sc2nc3n(c(=O)c2c1C)Cc1ccccc1-3,?
COCCNC(=O)[C@H](C)[C@H]1C[C@]1(C)[C@H](NC(=O)OCc1ccccc1)c1ccccc1,18.2%
CCCCOc1ccccc1NC(=O)Cn1c(-c2nonc2N)nc2ccccc21,4.4%
Cc1ccc(NC(=O)C2CC(=O)NC(N3CCc4ccccc43)=N2)cc1 (stereo unspecified),1.8%
Cc1c(NC(=O)CSc2ccccn2)c(=O)n(-c2ccccc2)n1C,0.0%
Cc1ccc(N(C(=O)c2ccncc2)C2C=CS(=O)(=O)C2)cc1 (stereo unspecified),8.1%
CCCCCc1c(C)nc(Nc2ccccc2)[nH]c1=O,0.0%
O=C(CN1CCOc2ccccc21)N1CCC(Cc2ccccc2)CC1,-8.7%
CCOC(=O)N1CCC(Nc2c(NCCCN(C)Cc3ccccc3)c(=O)c2=O)CC1,5.0%
O=C(O)CCCCCN1C(=O)c2ccc(C(=O)O)cc2C1=O,-2.8%
Cc1ccc(-c2cc(C(=O)NCCCN3CCOCC3)no2)cc1,3.8%
Cc1ccc(-n2nnc3c(=O)n(Cc4cc(C)ccc4C)cnc32)cc1,-1.7%
C=CCn1c(SCc2cccc(C#N)c2)nnc1-c1ccccc1O,1.5%
Cc1occc1C(=O)Nc1nnc(C2CCCCC2)s1,0.2%
O=C(COc1ccc(CO)cc1)Nc1ccc(F)cc1,8.2%
Cc1cc(C(=O)CSc2nnnn2C)c(C)n1-c1cccc(F)c1,3.5%
CC(C)N=c1cc2n(-c3ccc(Cl)cc3)c3ccccc3nc-2cc1Nc1ccc(Cl)cc1,-3.8%[25.6 µM]
CC(C)(C)NC(=O)Nc1ccccc1C(N)=O,2.3%
CCOc1ccc(-n2c(COc3ccc(C)cc3)nnc2SCC(N)=O)cc1,-4.9%
O=c1c2c(nc3c(-c4cccc5ccccc45)c[nH]n13)CCC2,31.6µM*
Cc1cccc(CNc2nc(-c3ccccc3CN(C)C)nc3ccccc23)c1,-2.6%
O=C(CN1CCC(O)CC1)N1c2ccccc2C=Cc2ccccc21,8.7%
O=C(c1ccc(O)cc1)c1ccc(C(=O)O)c(C(=O)O)c1,-7.8%

Structures above that have a tert-butyl group, in the order listed:
SMILES,HSD17B inh
CC(C)(C)n1ncc2c(=O)n(CC(=O)Nc3ccccc3)cnc21,5.9%
CC(C)(C)NC(=O)Nc1ccccc1C(N)=O,2.3%

(continued)
SMILES,HSD17B inh
CCOCCCNc1nc2c(c(=O)n(C)c(=O)n2C)n1CCCc1ccccc1,-10.0%
CC(C)C(=O)Nc1cccc(C(=O)Nc2ccc3c(c2)OCO3)c1,?
O=C(Nc1ccccc1)N1CCC2(CC1)CCN(C(=O)c1cnccn1)CC2,-1.9%
COc1cccc(NC(=O)Cn2c(SCC(=O)N3CCOCC3)nc3ccccc32)c1,-3.7%
COc1cc2c(cc1OC)-c1nnc(-c3cccs3)n1C(C)(C)C2,31.6µM*
CCOC(=O)C(NC(=O)c1ccccc1)=C1C=C(C)OC(C)=C1,-16.0%
CC(=O)N[C@@H](C(=O)O)C(C)(C)SN=O,-15.8%&-4.6%
Cn1c(NCCCN2CCOCC2)nc2c1c(=O)n(Cc1ccc(Cl)cc1Cl)c(=O)n2C,5.7%
COc1ccc(NC(=O)CSc2nnc(Cn3c(=O)sc4ccccc43)n2C)cc1,-2.6%
Cn1c(/C(C#N)=C2/CCCCCN2)nc2ccccc21,-3.3%
Cn1cccc1C(=O)OCc1cc(Cl)cc2c1OCOC2,2.4%
